# LANA-H2B inh: blocks KSHV LANA binding to histone H2A/H2B | cell-free LANA-H2A/H2B peptide, fluorescence polarization | hit rate 0.6% among 320,000 | AID 2629 | inhibition, % (test concentration not listed); in the data active = inhibition mostly above about 10%, no sharp cut-off; inactive = mostly below about 6.7%;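 also: stock transfer was 7.5 nL into about 10 µL; 0% = median of vehicle wells and 100% = median of positive control wells; one replicate is shown; the record names a cut of 25% in any replicate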
# Target sequence (Q9QR71 whole entry, looked up): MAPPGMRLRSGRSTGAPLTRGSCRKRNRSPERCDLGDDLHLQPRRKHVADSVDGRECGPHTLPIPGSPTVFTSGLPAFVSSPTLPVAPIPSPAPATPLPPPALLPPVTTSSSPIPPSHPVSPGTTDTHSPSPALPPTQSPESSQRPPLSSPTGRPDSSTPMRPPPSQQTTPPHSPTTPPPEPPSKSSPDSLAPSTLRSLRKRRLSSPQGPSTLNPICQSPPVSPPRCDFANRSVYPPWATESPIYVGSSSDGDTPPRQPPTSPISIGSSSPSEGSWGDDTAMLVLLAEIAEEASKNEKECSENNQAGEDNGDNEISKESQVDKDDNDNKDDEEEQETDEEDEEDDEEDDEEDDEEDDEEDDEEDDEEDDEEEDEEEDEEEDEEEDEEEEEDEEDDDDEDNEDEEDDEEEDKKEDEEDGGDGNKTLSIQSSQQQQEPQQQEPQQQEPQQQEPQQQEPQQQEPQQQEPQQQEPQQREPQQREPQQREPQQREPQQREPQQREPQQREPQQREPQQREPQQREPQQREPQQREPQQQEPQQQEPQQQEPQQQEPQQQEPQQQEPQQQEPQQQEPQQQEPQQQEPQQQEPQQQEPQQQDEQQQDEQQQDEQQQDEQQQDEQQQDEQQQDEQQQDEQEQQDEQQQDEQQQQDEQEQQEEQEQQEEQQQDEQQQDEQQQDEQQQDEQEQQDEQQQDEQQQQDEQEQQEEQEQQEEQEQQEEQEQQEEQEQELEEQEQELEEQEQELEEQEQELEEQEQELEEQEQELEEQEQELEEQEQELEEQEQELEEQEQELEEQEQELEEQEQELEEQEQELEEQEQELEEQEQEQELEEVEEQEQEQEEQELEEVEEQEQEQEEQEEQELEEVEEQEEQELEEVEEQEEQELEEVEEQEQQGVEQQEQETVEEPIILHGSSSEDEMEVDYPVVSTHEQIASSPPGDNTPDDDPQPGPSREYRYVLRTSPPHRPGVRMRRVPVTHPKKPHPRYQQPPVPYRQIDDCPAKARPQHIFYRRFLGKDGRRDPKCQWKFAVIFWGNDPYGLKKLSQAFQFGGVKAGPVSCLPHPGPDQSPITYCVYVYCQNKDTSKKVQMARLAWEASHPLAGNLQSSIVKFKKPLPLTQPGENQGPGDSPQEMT
# A1 inh: inhibitors of the anti-apoptotic protein A1, read as caspase activation; hit rate 0.066% among 330,000; AID 2462; MEF A1-2A-BIM cells, Caspase-Glo 3/7 luminescence, 3 h; percent of clofoctol response, vehicle zero; caspase activation, % (concentration not given with the values);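 active = over half of replicate activation scores above 10%, or exactly half above 10 with the replicate mean above 10; inconclusive = replicate mean below 10 yet half the replicates above 10; inactive = over half of replicates below 10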;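 also: wells of about 30 µL received 50 nL stock; many hits fall short of the cut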
# RanGTP-Impb inh: disruptors of Ran-importin-beta complex formation – biochemical, FRET, CFP-Ran, YFP-importin-beta, homogeneous, primary screen | cell-free CFP-Ran/YFP-importin-beta FRET ratio | hit rate 1.1% among 300,000 | AID 2216 | inhibition, % (concentration not given with the values);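 active = most replicates above 15%; inconclusive = exactly half above 15%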;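 also: 0% = DMSO wells and 100% = Ran loaded with GDP instead of GTP; wells of about 40 µL received 100 nL stock; the first replicate is given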
# Vif TR-FRET: inhibitors of Vif binding to APOBEC3G peptide, primary screen, biochemical, TR-FRET, GST-Vif 1-94, biotin-A3G peptide, dose response retest (AID 1117319) | TR-FRET GST-Vif / biotin-A3G peptide binding; higher % means a stronger effect; test concentration not given here; strong numbers were not always called active | inhibition, %; hits with a dose series show IC50 in µM | hit rate 0.57% among 260,000;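 active = above the screen mean plus three standard deviations and confirmed in dose response; inconclusive = results disagree or hit not tested in dose response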;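 also: Vif residues 1-94 fused to GST binding biotinylated APOBEC3G peptide 110-148; 0% = full assay without inhibitor and 100% = GST in place of GST-Vif; retest series ran down from 100 µM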
# Beta cell apopt: blocks beta cell apoptosis; INS-1E cytokine-induced death, ATP luminescence, 48 h; percent of positive-control rescue, neutral wells zero; protection from apoptosis, % (concentration not given with the values); hit rate 0.8% among 300,000;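 active = all replicates at 75% or more, or half of them and the mean; inconclusive = half reach 75% but not the mean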;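 also: 0% = cytokine-treated negative control wells and 100% = positive control rescue; higher means more ATP so stronger rescue from cytokine killing; wells of about 40 µL received 100 nL stock; the first replicate is given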
# T cruzi repl: T. cruzi replication inhibition. inhibition, % (test concentration not listed). T. cruzi beta-gal in NIH3T3, luminescence, 90 h. AID 1885. hit rate 1.4% among 300,000;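 active = mean inhibition across valid replicates above about 55%, limit read from the data; inconclusive = mean below that limit but half or more replicates reach it; inactive = mean below it, under half of replicates reach it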;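 also: signal also drops with host cell toxicity which is not excluded here; 0% = plate median of DMSO wells and 100% = zero luminescence signal; higher percent means less beta-gal luminescence so fewer parasites; stock transfer was 50 nL into about 50 µL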
# Calb FLC: affects C. albicans growth with fluconazole; C. albicans CaCi-2 (fluconazole-resistant clinical isolate) + fluconazole, Alamar Blue growth, 48 h; growth inhibition, % (no concentration beside the values); hit rate 0.57% among 300,000; AID 1979;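 active = most replicates above 75%; inconclusive = exactly half above 75%; inactive = most below 75%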;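 also: all wells also contain fluconazole at 8 µg/ml as a sub-toxic cotreatment; 0% = median of DMSO wells and 100% = median of geldanamycin control wells; wells of about 8 µL received 7.5 nL stock; the first replicate is given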
# MLL AF4-AF9 inh: inhibitors of human MLL-AF4/AF9 interaction; P42568; AlphaScreen, biotin-AF4 peptide binding to FLAG-AF9; inhibition, % at 10 µM; hit rate 0.47% among 350,000; AID 651704;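 active = every replicate reaching a set inhibition limit, whatever the replicate mean, cut at about 25% in these data; inconclusive = mean inhibition reaches that limit but some replicates miss it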;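 also: 0% = plate neutral control median and 100% = total signal loss; the record names both 10 and 1 µM as test concentration; the first replicate is given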
# * hit, by the source's call; ? = inconclusive; nt = no result given; & = joins results of further samples. Not all compounds are listed; count on the stated rates, not on these rows.
compound	LANA-H2B inh	A1 inh	RanGTP-Impb inh	Vif TR-FRET	Beta cell apopt	T cruzi repl	Calb FLC	MLL AF4-AF9 inh
CCOP(=O)(C#Cc1ccccc1)C(O)c1ccc(Br)cc1 (centres undefined)	-4.2	2.8	0.7	-2%	-9	5	2	-2.0
CCOP(=O)(OCC)C(NC(=O)c1ccccc1C)C(Cl)(Cl)Cl (centres undefined)	-0.3	1.7	2.6	9%	-12	-1	0	nt
Cc1nccc2c1[nH]c1ccccc12	-1.0	3.4	5.3	nt	-2	-18	4	-5.7
O=c1ccc2cc(OC3O[C@H](CO)[C@@H](O)[C@H](O)[C@H]3O)c(O)cc2o1 (some centres undefined)	5.3	0.6	nt	nt	-15	nt	nt	-6.8
O=C1CN=C(c2ccccc2)c2ccccc2N1Cc1ccc(C(F)(F)F)cc1	4.6	-0.2	-2.0	-2%	16	39	6	nt
Cc1cc(/C=C2\C(=O)NC(=O)N(c3ccc(F)cc3)C2=O)c(C)n1-c1ccc(C(=O)O)cc1	-0.7	0.1	18*	-2%	3	-12	-21	1.0
Cc1ccc(N2C(=O)CC(=O)NC2=O)cc1	0.5	-1.0	-1.0	20%	-2	-27	4	5.4
NC(=O)CN1CCCC1=O	-2.4	0.1	1.0	-11%	nt	-1	nt	3.1
Cc1cc(NC(=O)COC(=O)c2c(C)nn(Cc3ccccc3)c2Cl)no1	3.4	-0.2	7.1	0%	2	5	21	nt
O=C(c1cccc(C(F)(F)F)c1)C1CCCN(Cc2ncc[nH]2)C1 (centres undefined)	-0.9	0.5	1.9	21%	-11	16	24	-0.2
c1ccc2c(CN3CCN(C4CCCCC4)CC3)c[nH]c2c1	-0.5	1.1	2.5	2%	5	1	2	nt
COc1ccc2nc(/N=C/c3c(O)n(-c4cccc(Cl)c4)c(=O)[nH]c3=O)sc2c1	1.2	-0.5	0.7	?	-11	-11	1	nt
O=C(CSC1c2ccccc2-c2ccccc21)N/N=C/c1ccccc1C(=O)O	1.0	1.0	4.8	25%	-3	-33	22	1.7
CCNc1nc(NC(C)(C)C)nc(SC)n1	1.0	2.2	2.1	nt	4	0	nt	11
CC(C)c1ccccc1OCC(=O)N1CCCN(C)CC1	1.2	-0.5	-2.8	-1%	-3	5	-3	1.2
COCc1ccc(CN2CCCC(C(=O)c3sccc3C)C2)o1 (centres undefined)	-0.7	1.0	1.2	-6%	1	50	-12	0.4
C=C1C/C(=C/C)C(=O)O[C@@H]2CCN3CC=C(COC(=O)[C@]1(C)O)[C@H]23	0.4	-0.2	2.7	?	5	-4	0	-19
Cc1ccc2nsnc2c1-n1c(C)nc2ccccc2c1=O	3.6	0.2	1.2	13%	-7	-7	-11	nt
CC(C)N1CCN(Cc2cccc([N+](=O)[O-])c2)CC1	0.6	-0.4	-4.0	?	-1	9	?	-2.3
Cc1nn(-c2ccccc2)c2c1C(c1ccc3c(c1)OCO3)SCC(=O)N2 (centres undefined)	-1.6	-0.3	-0.1	23%	-9	-2	2	7.0
CC(=O)NC(=O)NC(C)Cc1ccccc1 (centres undefined)	-0.6	0.0	-1.8	-3%	-6	-9	14	nt
O=P1(Nc2ccc(F)cc2)COc2ccccc2OC1	-4.4	0.9	4.6	?	-3	-15	?	nt
O=C(Cn1c(=O)n(CC2CS2)c2ccccc21)N1CCCCC1 (centres undefined)	1.9	0.8	1.6	nt	nt	-13	3	-1.3
CN1C(=O)NC(=O)/C(=C\c2ccc([N+](=O)[O-])o2)C1=O	-3.6	-0.5	?	?	nt	5	-13	nt
O=C(Nc1cccc(OC(=O)N2CCCCC2)c1)N1CCCCC1	2.7	2.0	21*	13%	1	-13	-13	nt

compound	LANA-H2B inh	A1 inh	RanGTP-Impb inh	Vif TR-FRET	Beta cell apopt	T cruzi repl	Calb FLC	MLL AF4-AF9 inh
O=C(c1ccc(Cl)cc1)C1CCCN(Cc2ccc3ncccc3c2)C1 (centres undefined)	-0.2	-2.1	2.0	nt	3	36	-27	3.1
C=CCn1c(O)c(C(CC)=Nc2ccccc2NC(C)=O)c(=O)[nH]c1=O	2.6	0.0	nt	6%	nt	-14	7	nt
C=CCn1c(O)c(/C=N/N2CCOCC2)c(=O)[nH]c1=S	10	-0.8	6.7	nt	-4	-35	4	-0.7
COC(=O)C(O)(c1ccc(N(C)C(=O)c2cccs2)cc1)C(F)(F)F (centres undefined)	-5.5	-1.2	0.6	-6%	nt	-1	-11	-0.6
CCCCN(Cc1ccccc1)C1CCN(CCc2ccccc2)CC1	7.1	0.2	0.1	-13%	8	2	-2	nt
O=C1N(c2ccccc2)C(c2cccnc2)N2CCCN12 (centres undefined)	-1.3	0.7	-4.8	4%	0	-19	-17	1.3
C[C@]12CC[C@H](OS(=O)(=O)O)CC1=CC[C@@H]1[C@@H]2CC[C@]2(C)C(=O)CC[C@@H]12	-6.0&12	-0.2&0.0	6.1&-4.0	nt	-2&-6	-4&-13	9	-2.4&-2.8&-5.4
CC(Cc1ccccc1)NCC(=O)Nc1cc(N(C)C)nc2ccccc12 (centres undefined)	-1.7	1.7	4.0	1%	8	13	3	3.5
COC(=O)[C@@H](N)CCCN=C(N)N[N+](=O)[O-]	0.2	0.5	-3.1	-6%	-1	-12	2	-2.9
CN(C)CP(=O)(Nc1ccccc1)N(C)C (centres undefined)	-2.1	-0.4	-1.0	7%	-12	-1	5	nt
Cc1onc(-c2c(Cl)cccc2Cl)c1C(=O)Nc1ccc2c(C(F)(F)F)cc(=O)oc2c1	-1.0	-0.2	4.3	nt	-13	19	7	nt
O=C(CN1C(=O)COc2ccccc21)N1CCC2(CC1)OCCO2	2.8	-0.3	1.5	-11%	-2	-8	0	-10
O=C1NC(=O)N(Cc2ccco2)C(=O)/C1=C/C=C/c1ccco1	-1.5	-0.3	-7.0	0.91µM*	8	-12	-4	-6.4
CN1CCc2c([nH]c3ccccc23)C1	-5.0	0.5	1.5	nt	1	-3	-8	5.6
COc1ccc(Br)cc1CN1CCN(C(=O)Cc2ccccc2)CC1	2.6	-0.6	-0.8	16%	1	18	4	nt
CCc1cccc(CC)c1NC(=S)N1CC2CC(C1)c1cccc(=O)n1C2 (centres undefined)	-4.5	0.7	-0.5	nt	nt	-15	-17	5.1
CC(C)C(C)(NC(=O)c1cccn(Cc2ccc3c(c2)OC(F)(F)O3)c1=O)C(N)=O (centres undefined)	-2.8	0.0	-1.8	-6%	3	-16	-3	-0.1
S=C1CN=C(c2ccccc2Cl)c2cc(Cl)ccc2N1	-2.7	0.3	0.0	-7%	9	-38	-8	nt
CCCNS(=O)(=O)c1ccc(OCC(=O)N2CCN(Cc3ccc4c(c3)OCO4)CC2)cc1	-6.3	0.2	-0.9	2%	7	6	16	nt
Cc1ccccc1-n1c(O)c(/C=N/Nc2nc3c(c(=O)n(C)c(=O)n3C)n2C)c(=O)[nH]c1=S	-4.7	0.4	-0.3	1%	2	7	-6	nt
COC(=O)C(O)(c1ccc2c(c1)CCCN2)C(F)(F)F (centres undefined)	-2.2	0.5	?	29%	6	-5	-3	-10
CC(C)NC(=O)Cn1cc(C(=O)c2ccccc2)c2ccccc21	-1.8	0.7	-2.2	nt	1	-1	-2	-0.2
Nc1c(C(=O)NCc2ccco2)c2nc3ccccc3nc2n1CCN1CCCCC1	-5.4	-0.1	71*	7%	2	69*	6	nt
CNCC(O)c1cc(F)c(OCc2ccccc2)c(OCc2ccccc2)c1F (centres undefined)	-0.4	-0.7	0.7	nt	0	5	-32	8.5
CCCCOCCCN1C(C)=CC(=C2C(=O)NC(=S)NC2=O)C=C1C	-0.4	-0.2	0.1	nt	-1	-2	6	-4.7

compound	LANA-H2B inh	A1 inh	RanGTP-Impb inh	Vif TR-FRET	Beta cell apopt	T cruzi repl	Calb FLC	MLL AF4-AF9 inh
COC(=O)C1=C(c2ccc(Cl)c(C(F)(F)F)c2)C[C@@H]2CC[C@H]1N2C(=O)NCc1ccco1	-0.4	0.9	nt	nt	-4	nt	nt	-26
CC1=C(C(=O)Nc2ccccc2)SCCO1	3.2	-0.3	0.3	0%	10	-24	0	-1.0
NCCNc1ccc([N+](=O)[O-])c2cccnc12	-2.3	1.0	-1.4	-3%	2	?	6	3.1
CCc1ccc(NC2=NCCCS2)cc1	0.1	-0.5	-8.5	1%	-7	44	-14	-5.0
O=c1[nH]c(=O)n(Cc2ccccc2)c(O)c1C=Nc1ccc(CN2CCOCC2)cc1	0.0	-0.4	3.4	10%	-3	-22	-9	nt
CN1CC[C@@]23CCCC[C@@H]2[C@@H]1Cc1ccc(O)cc13	-1.4&-3.8	1.0	-4.5	-2%	5	-5	-2	-6.4
COc1ccc(C2C(C#N)=C(N)Oc3c2c(=O)oc2ccccc32)cc1Cn1cc([N+](=O)[O-])cn1 (centres undefined)	1.9	0.2	-0.3	?	1	-12	9	nt
COC(=O)c1ccc(N2C(=O)CC(N3CCC(n4c(=O)[nH]c5ccccc54)CC3)C2=O)cc1 (centres undefined)	1.2	?	-2.0	27%	-5	-8	-5	nt
Cn1c(O)c(C=NC2CCCCCC2)c(=O)[nH]c1=S	2.2	-0.1	-4.3	-19%	-5	-6	6	-1.3
Cc1nc2ccccc2c(=O)n1-c1cccc(O)c1	3.6	1.3	6.8	0%	-5	-15	-1	nt
CCOc1ccc(-n2c(O)c(/C=C3\C=Nc4ccccc43)c(=O)[nH]c2=O)cc1	-6.8	0.8	2.0	6%	1	-7	14	1.3
CC1CCCCN1CC(=O)c1ccc2cc[nH]c2c1 (centres undefined)	0.5	-0.6	-1.8	13%	3	-2	-5	4.7
CCOC(=O)CNC(=S)N1CC2C[C@@H](C1)Cn1c2cccc1=O	-2.7	0.3	4.5	nt	-3	-9	-4	-2.7
Cc1ccc(C2N3CCCN23)cc1 (centres undefined)	-4.4	1.1	-2.2	-8%	-1	12	-3	-0.3
COC(=O)C(O)(c1ccc(NC(=O)c2ccco2)c(OC)c1)C(F)(F)F (centres undefined)	-4.2	1.3	-1.3	9%	nt	-4	-9	nt
C[N+]1(C)C2CCC1CC(OC(=O)c1c[nH]c3ccccc13)C2 (centres undefined)	-5.0	1.0	nt	nt	-5	nt	nt	8.7
COc1cc(N2CCOCC2)ccc1C=C1C(=O)NC(=O)NC1=O	1.4	-0.1	3.6	nt	-6	-7	-2	-4.1
CCOP(=O)(Cc1ccc(C#N)o1)OCC	0.1	0.9	-5.3	-8%	-2	-21	-7	-1.9
CC1CCN(C(=O)C(C)Cl)CC1 (centres undefined)	-7.3	-0.4	0.1	-3%	-4	-5	-12	-1.7
COC(=O)C1=C(c2ccc(-c3ccccc3)c(F)c2)C[C@@H]2CC[C@H]1N2C(=O)N1CCOCC1	5.1	0.1	nt	nt	67	nt	nt	6.6
NC1CCCCC1N=Cc1c(O)n(Cc2ccc(F)cc2)c(=O)[nH]c1=O (centres undefined)	-4.7	2.2	-0.7	10%	4	-15	-2	nt
CNC(C(=O)c1ccccc1)C(OC(C)=O)c1cccc([N+](=O)[O-])c1 (centres undefined)	0.5	1.9	2.8	?	-6	13	0	2.6
CC(C)NS(=O)(=O)c1ccc(OCC(=O)N2CCN(Cc3ccccc3)CC2)cc1	-4.8	-0.6	1.2	nt	-2	1	-1	nt
OC(CCNCCc1c[nH]c2ccccc12)C(F)(F)F (centres undefined)	1.6	0.2	-5.0	1%	0	-9	-12	6.8
